VACV Venus inh – vaccinia inhibition (Venus reporter) | Vaccinia virus Venus reporter expression, fluorescence | Potency, µM (doses to about 36.5 µM), for inactives: top-dose activity change, negative = inhibition, usual class: inhibitors | 330,000 compounds, 0.46% hits | AID 720580; active means well fitted inhibition curve with a large enough effect; inconclusive means small, poorly fitted or top-dose-only effect; inactive means no such curve, though single readings can be large or run the other way; tested in A549 cells; note: nearly all actives have a fitted effect of over 30% in size; inactives centre near -10
VACV mCherry inh – vaccinia inhibition (mCherry reporter); Potency, µM (doses to about 36.5 µM), without a hit: top-dose activity change, negative = inhibition, hits mostly inhibitors; 310,000 compounds, 0.63% hits; Vaccinia virus mCherry reporter infection, fluorescence; about a quarter of the inactives have no number; active = well fitted inhibition curve with a large enough effect; inconclusive = small, poorly fitted or top-dose-only effect; inactive = no such curve, though single readings can be large or run the other way; tested in A549 cells; note: nearly all actives have a fitted effect of over 35% in size; inactives centre near -10
* = called active by the depositor; i = inactive; ? = inconclusive; nt = no result given; & = joins results of further samples; [ ] = dose if it differs, or a comment. % is set by controls: 0 for no effect and ±100 for the full control effect; potency is the fitted concentration of half-maximal effect. This is a random part of the collection; 0.82% or so of the library scored in one or more.

SMILES	VACV Venus inh	VACV mCherry inh
O=C1C(=Cc2ccco2)CCC1=Cc1ccco1	-6.4%	-13.3%
CC1S/C(=C(\C#N)C(N)=O)N(c2ccc(F)cc2)C1=O (stereo not given)	?	-11.6%
O=C(NCc1ccc2c(c1)OCO2)C(=O)NCC1OCCN1S(=O)(=O)c1ccc(F)cc1 (stereo not given)	3.0%	-15.5%
Cc1ccc(SC(=O)COc2ccc(C)c(C)c2)cc1	-7.5%	-13.2%
CCCCCCCCN1C(=O)[C@H](CC(=O)NCc2cccc3ccccc23)C[C@@]2(C(=O)OC)CCCCC=C12	-15.1%	-22.5%
CC(C)(C)OC(=O)NCc1ccc(CNC(=O)c2[nH]cnc2C(=O)Nc2ccccc2F)cc1	?	?
CCOc1ncccc1C(=O)N(C)CC(=O)Nc1ccccc1SC	-6.9%	-11.2%
CCn1c(-c2ccoc2C)n[nH]c1=S	-8.8%	-13.2%
COC(=O)c1sccc1NC(=S)Nc1cccc(F)c1	-10.0%	i
Cc1cc(C)c(O)c(-c2cc(C(=O)NCCc3ccc(S(N)(=O)=O)cc3)[nH]n2)c1	-9.4%	?
CSc1ccc(C#N)cc1NC(=O)c1ccc(Cl)cc1	-9.1%	nt
Cc1ccc(S(=O)(=O)NCC2CCC(C(=O)NCCc3ccccc3)CC2)cc1 (stereo not given)	-5.2%	-4.6%
Cc1nc(-c2ccc(F)cc2)c(CC(=O)N2CCN(S(=O)(=O)c3cccc(Cl)c3)CC2)s1	-10.9%	-6.8%
COc1ccccc1NC(=O)c1nn(C)cc1Br	-4.9%	nt
COc1cc(OC)c(OC)cc1CN1CCN(C(=O)CC(C)C)CC1	-0.9%	-14.9%
CCOC(=O)c1c(NC(=S)Nc2cccnc2)sc(C)c1C	-4.4%	-9.2%
COc1cc(/C=N/NC(=O)CC2(C)OCCCO2)ccc1OCc1ccccc1	3.3%	-12.0%
COc1ccc(/C(=N/Nc2ncnc3ccccc23)C(=O)O)cc1	-26.3%	10µM*
O=C(Nc1nc(-c2cccs2)c(-c2cccs2)s1)C1CCCC1	-8.6%	-21.5%
CC(C1CC1)N(Cc1ccccc1)C(=O)NC(=O)c1ccccc1 (stereo not given)	-0.5%	i
CC(C)c1ccc(CNC(=O)c2ccc(N3CCCC3)c(NC(=O)NCc3ccc(F)cc3)c2)cc1	-27.9%	i
Cc1ccc(N=Nc2c(C)[nH]n(C(N)=S)c2=O)cc1	-18.8%	?
COC(=O)c1ccccc1-c1cc(C)cc2c1OC(CNC(=O)C1CCOC1)C2 (stereo not given)	-23.6%	-3.5%
COCCCNC(=O)c1cn(CCOC)c(=O)c2c1c1ccccc1n2C	-6.7%	-15.2%
CCCC1Cc2c(sc3nc(SC)nc(N)c23)CO1 (stereo not given)	-14.5%	-10.0%
O=C(CCn1nnc2ccccc2c1=O)N[C@@H](Cc1c[nH]c2ccccc12)C(=O)O	-17.1%	-8.5%
Cc1cccc(C)c1NC(=O)CNC(=O)CCCc1c[nH]c2ccccc12	-2.9%	-8.0%
CN(C(=O)CSc1n[nH]c(-c2cccs2)n1)C1CCS(=O)(=O)C1 (stereo not given)	-3.8%	-10.4%
Cc1cc(C)cc(NC(=O)CSc2nc3[nH]ncc3c(=O)[nH]2)c1	-11.9%	-13.7%
COc1ccc(N2CCN(S(=O)(=O)c3cnc[nH]3)CC2)cc1	-17.4%	i
COC(=O)CN1C2=NCCCN2c2ccccc21	-4.6%	-12.1%
Cc1ccsc1C(=O)C1CCCN(CCO)C1 (stereo not given)	-8.2%	-23.5%
CC(=O)Nc1ccc(C(C)=NNC(=O)C2CCCC2)cc1	-4.6%	i
Cc1cc(S(=O)(=O)N2c3ccc(F)cc3CCC2C)ccc1-n1cnnn1 (stereo not given)	-7.0%	-24.3%
Cc1ccc(C2=[N+]([O-])C(C)N(O)C2(C)C)o1 (stereo not given)	24.7%	nt
O=C(NC1CCCCCC1)C1c2ccccc2C(=O)N1Cc1ccccc1Cl (stereo not given)	-6.5%	-1.2%
CCCCCN(C(=O)CCC(=O)OCC(=O)NCc1cccc(OC)c1)c1c(N)n(CCCC)c(=O)[nH]c1=O	-7.9%	-13.3%
COC(=O)c1ccccc1NC(=O)Cn1cnc2cc(C)c(C)cc21	-15.2%	i
CC1(C)CC(N=Cc2c(O)n(Cc3ccc4c(c3)OCO4)c(=O)c3ccccc23)CC(C)(C)N1	-3.8%	i
O=C(C[N+]1(CC#Cc2ccccc2)CCCCC1)c1ccc(Cl)cc1	?	10µM*
CCCCNC(=O)N(O)C1N(/N=C/c2cccnc2)C(=S)SC1(C)C (stereo not given)	-12.9%	-21.3%
CC(Sc1nnc(N)s1)C(=O)Nc1ccc(N2CCOCC2)cc1 (stereo not given)	?	nt
C=CCn1c(SCC(=O)NC23CC4CC(CC(C4)C2)C3)nc(O)cc1=O	-5.2%	nt
CC(=O)Nc1ccc(OC(=O)c2ccc(Cl)cc2)cc1	-4.8%	-15.7%
COc1cc(NC(=O)CC2C(=O)OCCN2Cc2ccccc2)cc(OC)c1 (stereo not given)	-6.2%	-4.0%
C/C(CC(=O)Nc1ccc(Cl)c(Cl)c1)=N\NC(=O)Cc1ccccc1	-18.2%	-12.6%
O=C(c1ccc2c(c1)N(Cc1ccc(Cl)cc1)C(=O)c1ccccc1S2(=O)=O)N1CCCC1	-12.8%	-9.6%
Cc1ccnc(Nc2cccnc2)n1	-3.4%	i

Structures above containing a COOH group:
SMILES	VACV Venus inh	VACV mCherry inh
COc1ccc(/C(=N/Nc2ncnc3ccccc23)C(=O)O)cc1	-26.3%	10µM*
O=C(CCn1nnc2ccccc2c1=O)N[C@@H](Cc1c[nH]c2ccccc12)C(=O)O	-17.1%	-8.5%

(continued)
SMILES	VACV Venus inh	VACV mCherry inh
CCOc1ccc(NC(=O)CCc2c(C)nc3nc(C)nn3c2C)cc1	4.3%	-2.1%
CCn1nnc2cc(C(=O)Nc3cccc(Cl)c3)ccc21	-2.0%	-5.0%
CN(C(=O)c1cccc(NC(=O)Cc2ccc(NC(=O)C3CCN(C(=O)C4CCCC4)CC3)cc2)c1)C1CCCCC1	-10.4%	-7.1%
Cn1c2ccccc2c2cnn(CC(=O)NCCCN3CCN(c4ccccc4F)CC3)c(=O)c21	-22.2%	-26.5%
Cc1ccc(C)c(NC(=O)Cn2c(=O)n(Cc3cccs3)c(=O)c3cccnc32)c1	-14.1%	i
CN1CCN(c2ccc(Cl)cc2NS(=O)(=O)c2ccccc2Cl)CC1	-24.6%	?
COC(=O)c1ccc(CSc2nc3ccc(C)cc3[nH]2)o1	-7.5%	nt
COc1ccc(C(=O)NNC(=O)c2ccc(S(=O)(=O)N3CCCCC3)cc2)cc1	-18.5%	-0.1%
CC(C)(C)c1ccc(OC(=O)c2ccccc2)cc1	-12.5%	i
CCNC(=O)CC1C(=O)N(c2ccccc2)C(=O)N1CCOC (stereo not given)	5.8%	-15.0%
NNC(=O)C1C(O)CCC2CN3CCc4c([nH]c5ccccc45)C3CC21 (stereo not given)	-6.6%	-0.8%
COc1ccc(S(=O)(=O)N(C)c2ccc(C(=O)N3CCC(C(N)=O)CC3)cc2)cc1	-0.9%	-9.5%

Quoted at random: 4 entries already listed, in no set order.
SMILES	VACV Venus inh	VACV mCherry inh
Cc1ccc(C)c(NC(=O)Cn2c(=O)n(Cc3cccs3)c(=O)c3cccnc32)c1	-14.1%	i
CN(C(=O)c1cccc(NC(=O)Cc2ccc(NC(=O)C3CCN(C(=O)C4CCCC4)CC3)cc2)c1)C1CCCCC1	-10.4%	-7.1%
CN1CCN(c2ccc(Cl)cc2NS(=O)(=O)c2ccccc2Cl)CC1	-24.6%	?
NNC(=O)C1C(O)CCC2CN3CCc4c([nH]c5ccccc45)C3CC21 (stereo not given)	-6.6%	-0.8%

(more compounds)
SMILES	VACV Venus inh	VACV mCherry inh
CNC(=O)c1ccc(Nc2nnc(-c3ccc(C)c(S(=O)(=O)N4CCCCC4)c3)c3ccccc23)cc1	-11.2%	-7.0%
Cn1c(=O)c2c(ncn2CC(=O)OCC(=O)c2ccc(Cl)cc2)n(C)c1=O	-11.3%	-1.5%
COc1ccc([N+](=O)[O-])cc1NC(=O)COC(=O)/C=C/c1ccco1	-11.3%	-0.5%
Cc1ccccc1Cn1c2ccccc2c2cnn(CC(=O)NCc3ccco3)c(=O)c21	-1.6%	?
Cn1ccc2c(-c3ccc(C(F)(F)F)cc3)cc3c(c21)C1CCC3C1 (stereo not given)	6.1%	18.6%
O=C(COC(=O)C1(c2ccccc2)CC1)NNC(=O)c1ccccc1F	-15.6%	i
COc1ccccc1N1CCN(C(=O)c2cc(S(=O)(=O)N3CCC(C)CC3)cn2C)CC1	-21.4%	?
Cc1cccc(NC(=O)Nc2nnc([C@H]3C[C@H](O)[C@@H](CO)O3)s2)c1	2.8%	14.8%
O=C(COC(=O)c1ccc(O)cc1O)Nc1ncc(Cl)cc1Cl	-3.2%	-10.2%
O=C(CCCc1nc(-c2ccc(Cl)cc2)no1)NCc1ccco1	-22.6%	-12.1%
O=C(NCc1n[nH]c(=S)n1-c1ccccc1)c1cccs1	2.8%	10.4%
O=C(CCNC(=O)c1ccc(Br)cc1)NCc1ccncc1	-12.6%	i
Cc1ccc(NC(=O)CSc2nnc(-c3cc4occc4n3C)n2-c2ccccc2C)cc1F	-17.8%	-15.4%
Cc1cc(C(=O)CCl)c(C)n1CCc1ccccc1	8.9%	-13.7%
COCCn1nnnc1C(c1cc2cccc(C)c2[nH]c1=O)N1CCN(c2ccccc2F)CC1 (stereo not given)	?	nt
CC(=O)c1ccc(NC(=S)NCCc2ccc(S(N)(=O)=O)cc2)cc1	-5.9%	-4.7%
Cc1ccc(NC(=O)Cn2nc(-c3ccccc3Cl)ccc2=O)c(Br)c1	-10.1%	-15.9%
COC(OC)c1ccnc(-c2ccc(OC(C)=O)cc2)n1	-6.8%	i
CCOc1ccccc1N1CC(C(=O)Nc2ccc3c(c2)OCCO3)CC1=O (stereo not given)	5.1%	-13.7%
CC1CCCN(Cc2nc(Cc3ccccc3Cl)no2)C1 (stereo not given)	-9.5%	i
COc1ccc(Cl)cc1-c1nc(N)nc(N(C)C)n1	0.0%	i
Cc1ccc(NC(=O)Cn2nc(-c3ccc(F)cc3)c3cnc4ccc(C)cc4c32)cc1	-2.2%	-3.8%
C=CCC[C@H](Cc1ccc(F)cc1)C(=O)OC[C@@H](C)NC(=O)[C@@H](CC=C)CC(=O)N[C@H](CO)Cc1ccccc1	?	i
C[C@H](CO)N1C[C@H](C)[C@H](CN(C)S(C)(=O)=O)Oc2c(cccc2N(C)C)C1=O	-8.0%	i
C=C1CCN(C(C(=O)OC)C(C)C)S(=O)(=O)c2ccccc21 (stereo not given)	-3.1%	-26.1%
O=C(NCCS(=O)(=O)N1CCN(c2ccccc2)CC1)c1ccc(Br)o1	-17.5%	-1.1%
CCOC(=O)c1cccc(NC(=O)CC(c2cc(OC)c(OC)c(OC)c2)N2Cc3ccccc3C2=O)c1 (stereo not given)	3.8%	-0.2%
COC(=O)c1c(NC(=O)CN2CCC3(O)CCCCC3C2c2ccc(OC)cc2OC)sc(C)c1C (stereo not given)	-6.5%	i
Cc1cc(C)cc(C(=O)Nc2ccc3[nH]c(=O)[nH]c3c2)c1	-13.0%	i
CCOC(=O)c1c(NC(=O)CC)sc2c1CCN(Cc1ccccc1)C2	0.3%	?
NS(=O)(=O)c1ccc(N2CCNCC2)cc1	-14.9%	-7.3%
O=C(NCc1ccc(Cl)cc1)c1cc(S(=O)(=O)N2CCCCC2)c[nH]1	?	-16.5%&-0.7%
CC(C)CC(N)c1cn([C@@H](CCC(=O)O)C(=O)N2CCNCC2)nn1 (stereo not given in full)	-5.2%	i
CCc1nn2c(=O)cc(COC(=O)c3ccccc3NC(=O)c3cccs3)nc2s1	-15.3%	-19.8%
CN(Cc1ccccc1)C(=O)CCN1C(=O)c2cccc([N+](=O)[O-])c2C1=O	-10.3%	?
COC(=O)c1ccccc1NC(=O)CCCOc1cc(=O)n(C)c2ccccc12	-11.6%	i
COc1cccc(C(c2ccccc2)N2C3CCC2CN(S(=O)(=O)c2ccc(F)cc2)CC3)c1 (stereo not given)	-7.1%	i
O=C(c1cc(S(=O)(=O)N2CCCCC2)ccc1N1CCOCC1)N1CCN(Cc2ccccc2)CC1	-9.7%	-5.8%
CN1C(=O)c2oc3ccccc3c(=O)c2C1c1ccncc1 (stereo not given)	6.6%	i
COC(=O)c1ccn(Cc2ccccc2Cl)n1	-6.3%	-2.7%
CCN1C(=O)c2ccccc2Sc2ccc(C(=O)NCCN3CCOCC3)cc21	-13.8%	-13.8%
Cc1ccc(NC(=O)COC(=O)CSC(=S)N2CCOCC2)cc1C	-4.5%	-7.0%
Cc1sc2ncn(CC(=O)N3CCC4(CC3)OCCO4)c(=O)c2c1C	-16.8%	-14.1%[1.46 µM]
CC(=O)c1cccc(-n2c(=O)c3c4c(sc3n(CC(=O)c3ccc(Cl)cc3)c2=O)CN(C(C)=O)CC4)c1	1.5%	-3.7%
C=C(C)CNC(=O)c1ccc(OC2CCN(S(=O)(=O)N(C)C)CC2)cc1	-11.6%	-1.5%
O=C(Nc1cccs1)Nc1c(F)cc(F)cc1Br	-2.9%	-12.5%
COC(=O)c1cccc(Nc2c(-c3ccc(SC)cc3)nc3nc[nH]n23)c1	0.2%	-5.9%
COC(=O)c1[nH]c2ccc(C)cc2c1NC(=O)C1=COCCO1	-5.8%	nt
Cc1ccc(Nc2cc(C)nn2-c2nc(C)cc(=O)[nH]2)cc1	?	2.24µM*
CCOC(=O)CNC(=O)CSc1nc(Cc2cccs2)nc2ccccc12	-0.3%	i

Profiles, quoted from the list. Order of screens: VACV Venus inh | VACV mCherry inh
`Cn1c2ccccc2c2cnn(CC(=O)NCCCN3CCN(c4ccccc4F)CC3)c(=O)c21` is listed with -22.2% | -26.5%
`O=C(c1ccc2c(c1)N(Cc1ccc(Cl)cc1)C(=O)c1ccccc1S2(=O)=O)N1CCCC1` is listed with -12.8% | -9.6%
